High-throughput results deposited in PubChem BioAssay by ICCB-Longwood Screening Facility, Harvard Medical School.
Sa growth 42C – S. aureus growth inhibition at 42 and 30 °C, primary screen, LtaS inhibitor project, RN4220, two temperatures | relative growth, % (concentration not given with the values) | OD600, 20 h, 42 °C; hits give low values | AID 720641, 2013 | hit rate 0.53% among 170,000;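 active = growth at 42 °C up to 50% and 20 or more points under that at 30 °C, or under 10% at both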;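 note: 300 nL library stock went into each well; scaled to the means of positive and negative controls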
GIV-Gai inh – inhibitors of GIV peptide binding to Galpha-i3, primary screen, biochemical, fluorescence polarization, FITC-GIV GBA peptide, rat Galphai3. Guanine nucleotide-binding protein G(i) subunit alpha-3 (Rattus norvegicus), P08753. hit rate 0.42% among 210,000. 90 min; hits give low values; scaled: aluminum fluoride 0%, vehicle 100%. percent of control (FP), % (test concentration not listed). AID 1224905, 2016;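 active = replicate mean at 85% of control or lower, very high polarization wells dropped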;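 note: wells of about 15 µL received 100 nL stock; the first replicate is given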
Target sequence (P08753 whole entry, looked up): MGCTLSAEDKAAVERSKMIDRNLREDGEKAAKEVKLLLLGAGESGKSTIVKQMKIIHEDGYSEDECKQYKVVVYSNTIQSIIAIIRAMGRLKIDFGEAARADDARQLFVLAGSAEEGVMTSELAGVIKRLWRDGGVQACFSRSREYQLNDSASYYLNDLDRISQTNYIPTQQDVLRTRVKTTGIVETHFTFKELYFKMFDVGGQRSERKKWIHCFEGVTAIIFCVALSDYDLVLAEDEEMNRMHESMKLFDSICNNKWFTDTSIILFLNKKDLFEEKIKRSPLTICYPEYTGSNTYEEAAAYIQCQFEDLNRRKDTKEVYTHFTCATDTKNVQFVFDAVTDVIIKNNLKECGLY
HCMV UL50-53 inh – inhibitors of HCMV UL50-UL53 interaction, biochemical, HTRF | HCMV UL50-UL53 nuclear egress complex (human cytomegalovirus) | normalized percent inhibition | inhibition, % (concentration not given with the values) | hit rate 0.15% among 190,000 | AID 1918969, 2023;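 active = both replicates at 50% or more, plus weaker picks with an unusually low signal ratio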;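 note: stock transfer was 100 nL into about 20 µL; 0% = negative control wells and 100% = wells with untagged competitor protein; inactives centre near -12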
Sa growth 42C second temp – second read-out of Sa growth 42C, no call of its own (marks repeat the call); relative growth, %; measured here: growth at 30 °C;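 optical density after 20 h as mean of two plates; 100% = untreated growth and lower means inhibition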
Starred values were filed as active, the others as inactive.

CC1=C(C(=O)OCCSc2ccccc2)C(c2ccc3c(c2)OCO3)NC(=O)N1 (configuration not stated) was read as GIV-Gai inh 104 and HCMV UL50-53 inh -12.
Screening O=C1CCSC2(C(=O)N(Cc3ccc(F)cc3)c3ccccc32)N1c1cccc(F)c1 (configuration not stated) returned Sa growth 42C 89, GIV-Gai inh 110 and Sa growth 42C second temp 82.
O=C(Cc1csc(NC(=O)C2CC2)n1)NC1CCCCC1 was read as GIV-Gai inh 101 and HCMV UL50-53 inh -17.
`COc1ccc2c(c1)CCc1c(C(=O)N(C)c3ccccc3)noc1-2` gave Sa growth 42C 117, GIV-Gai inh 108 and Sa growth 42C second temp 96.
Screening CCc1c(C)nc2ncnn2c1Nc1cccc(C)c1C returned GIV-Gai inh 98 and HCMV UL50-53 inh -17.
`CCOC(=O)c1ccccc1NC(=O)c1cc2ccccc2o1` gave Sa growth 42C 92, GIV-Gai inh 94, HCMV UL50-53 inh -12 and Sa growth 42C second temp 89.
O=C(/C=C/c1ccco1)Nc1ccc(N2CCOCC2)cc1 was read as Sa growth 42C 89, HCMV UL50-53 inh -32 and Sa growth 42C second temp 91.
`Cc1ccnc(NC(=O)CCC(=O)O)c1` gave Sa growth 42C 100, GIV-Gai inh 100, HCMV UL50-53 inh -4 and Sa growth 42C second temp 98.
Screening CN(C)/C=N/c1ncnc2c1cnn2-c1ccccc1 returned Sa growth 42C 87, HCMV UL50-53 inh -13 and Sa growth 42C second temp 93.
For COc1ccc(S(=O)(=O)Cc2ccc(C(=O)NC3CCCCC3)o2)cc1 the results were Sa growth 42C 85, GIV-Gai inh 104, HCMV UL50-53 inh 6 and Sa growth 42C second temp 92.
Screening COc1ccc(NC(=O)CN2CCN(Cc3ccccc3F)S2(=O)=O)cc1Cl returned GIV-Gai inh 107 and HCMV UL50-53 inh 4.
CCOC(=O)C1CCN(S(=O)(=O)c2ccc(-c3cc(C(F)(F)F)no3)s2)CC1 was read as Sa growth 42C 99, GIV-Gai inh 107, HCMV UL50-53 inh 14 and Sa growth 42C second temp 106.
COc1cc(C(=O)Nc2ccc3oc(-c4ccc(Br)cc4)nc3c2)cc(OC)c1OC was read as GIV-Gai inh 102 and HCMV UL50-53 inh -16.
Screening CCOc1ccc(CC(=O)Nc2c(C(=O)c3ccc(F)cc3)oc3ccccc23)cc1OCC returned Sa growth 42C 78, GIV-Gai inh 103, HCMV UL50-53 inh -12 and Sa growth 42C second temp 82.
For O=C(NCCc1ccc(Cl)cc1)c1cc2c(=O)[nH]c3ccccc3c2s1 the results were Sa growth 42C 91, GIV-Gai inh 97 and Sa growth 42C second temp 88.
COc1ccc(CCNC(=O)COc2cccc3c2CCN(Cc2cccnc2)C3=O)cc1OC was read as Sa growth 42C 91, GIV-Gai inh 100, HCMV UL50-53 inh -13 and Sa growth 42C second temp 85.
For C[n+]1c(/C=C/Nc2ccccc2)sc2ccccc21 the results were Sa growth 42C 98, HCMV UL50-53 inh -54 and Sa growth 42C second temp 63.
`CCOC(=O)c1c(NC(=O)COc2ccc(Cl)cc2)sc(C(=O)Nc2ccc(C)c(Cl)c2)c1C` gave GIV-Gai inh 103 and HCMV UL50-53 inh -19.
For CN1CCN(CCCNC(=O)C2CCCN(c3nc4cccnc4s3)C2)CC1 (configuration not stated) the results were GIV-Gai inh 107 and HCMV UL50-53 inh -2.
Screening COC(=O)c1ccccc1-c1ccc(-c2nc3sc4c(c3c(=O)[nH]2)CCCC4)o1 returned Sa growth 42C 92, GIV-Gai inh 105, HCMV UL50-53 inh -4 and Sa growth 42C second temp 89.
CCc1cccc(C)c1Nc1c(-c2cccc(O)c2)nc2nc(C)cc(C)n12 was read as Sa growth 42C 90, GIV-Gai inh 114, HCMV UL50-53 inh -18 and Sa growth 42C second temp 80.
For CC1CC(=O)c2cnc(N3CC(C)CC(C)C3)nc2C1 (configuration not stated) the results were Sa growth 42C 82, GIV-Gai inh 101, HCMV UL50-53 inh -2 and Sa growth 42C second temp 99.
`O=C(Oc1ccc2c(c1)OCO2)N1CCOCC1` gave Sa growth 42C 95, GIV-Gai inh 103, HCMV UL50-53 inh -20 and Sa growth 42C second temp 101.
Screening N#Cc1c(N)cc(N)nc1SCc1ccc(Cl)c(Cl)c1 returned Sa growth 42C 70, HCMV UL50-53 inh -17 and Sa growth 42C second temp 62.
`COC(=O)c1ccc(Cn2c(SCC(=O)NCc3ccccc3)nc3ccccc32)cc1` gave Sa growth 42C 100, GIV-Gai inh 103 and Sa growth 42C second temp 87.
CCOc1ccccc1OCCCCn1c(-c2ccc(Cl)cc2)nc2ccccc2c1=O was read as Sa growth 42C 92, GIV-Gai inh 101, HCMV UL50-53 inh -1 and Sa growth 42C second temp 93.
`C=CCNC(=O)c1c(N)n(-c2ccccc2)c2nc3ccccc3nc12` gave Sa growth 42C 98, HCMV UL50-53 inh -45 and Sa growth 42C second temp 87.
O=c1ccc2c(c1)oc1c(-c3ccccc3)c3ccccc3[nH]c12 was read as Sa growth 42C 107, HCMV UL50-53 inh 11 and Sa growth 42C second temp 109.
For Cc1noc(C)c1C(=O)NCc1cc(F)cc2c1OCOC2 the results were Sa growth 42C 115, GIV-Gai inh 99, HCMV UL50-53 inh -10 and Sa growth 42C second temp 91.
For O=C(Nc1cccc(Cl)c1)Nc1nncs1 the results were Sa growth 42C 41, HCMV UL50-53 inh 27 and Sa growth 42C second temp 27.
Cc1ccc(C(=O)CSc2nc3ccccc3c(=O)n2N)o1 was read as Sa growth 42C 108, GIV-Gai inh 99, HCMV UL50-53 inh -43 and Sa growth 42C second temp 110.
For Clc1ccc(-c2noc(CCCc3nc4ccccc4[nH]3)n2)cc1 the results were GIV-Gai inh 107 and HCMV UL50-53 inh 8.
C/C(=N\O)c1ccc(O)cc1O was read as Sa growth 42C 93, GIV-Gai inh 102 and Sa growth 42C second temp 85.
`COc1ccc(C2c3sc(=S)[nH]c3SC3C4CCC(C4)C23)cc1` (configuration not stated) gave Sa growth 42C 81, GIV-Gai inh 102 and Sa growth 42C second temp 80.
CC1(C)Oc2ccc(/C=C/C(=O)N3CCCCC3)c(O)c2C(N2CCCCC2)C1O (configuration not stated) was read as Sa growth 42C 96, GIV-Gai inh 108, HCMV UL50-53 inh -18 and Sa growth 42C second temp 89.
Screening O=S(=O)(NC1CCCCC1NC1CCCCC1)c1ccccc1 (configuration not stated) returned Sa growth 42C 113, GIV-Gai inh 109 and Sa growth 42C second temp 86.
For Cc1cc(Nc2cccc(Cl)c2)nc2ccc(NC(=O)COc3ccc(Cl)cc3)cc12 the results were Sa growth 42C 120, GIV-Gai inh 109 and Sa growth 42C second temp 99.
`O=C1CCCN1c1ncccn1` gave GIV-Gai inh 106 and HCMV UL50-53 inh -4.
Cc1ccc2c(=O)cc(C(=O)Nc3sc4c(c3C(=O)NCC3CCCO3)CCC4)oc2c1 (configuration not stated) was read as Sa growth 42C 109, GIV-Gai inh 107, HCMV UL50-53 inh -12 and Sa growth 42C second temp 89.
`Cc1ccc(Cl)cc1NC(=O)C(C)n1nnc2sc(-c3ccccc3)cc2c1=O` (configuration not stated) gave Sa growth 42C 101, GIV-Gai inh 99, HCMV UL50-53 inh -10 and Sa growth 42C second temp 89.
`COc1cccc(NC(=O)c2ccc(OC)c(OC)c2)c1` gave Sa growth 42C 96, GIV-Gai inh 103, HCMV UL50-53 inh -9 and Sa growth 42C second temp 89.
CC(NCc1cccc(S(=O)(=O)N(C)C)c1)c1ccc(F)cc1 (configuration not stated) was read as Sa growth 42C 104, HCMV UL50-53 inh -11 and Sa growth 42C second temp 91.
`Cc1ccc(-c2cnnc(-n3nc(C)c4c3NC(=O)CC4c3cccc(C)c3)n2)cc1` (configuration not stated) gave GIV-Gai inh 106 and HCMV UL50-53 inh -37.
`CCOC(=O)C1=C(c2ccccc2)NC(SC)=C(C#N)C1c1cccnc1` (configuration not stated) gave GIV-Gai inh 99 and HCMV UL50-53 inh -7.
For CCNC(=O)N(Cc1ccc(Cl)cc1)Cc1cccnc1 the results were Sa growth 42C 90, GIV-Gai inh 100, HCMV UL50-53 inh -28 and Sa growth 42C second temp 88.

3 compounds already listed, arranged by count of non-hydrogen atoms, highest first.
For Cc1cc(Nc2cccc(Cl)c2)nc2ccc(NC(=O)COc3ccc(Cl)cc3)cc12 the results were Sa growth 42C 120, GIV-Gai inh 109 and Sa growth 42C second temp 99.
CC(NCc1cccc(S(=O)(=O)N(C)C)c1)c1ccc(F)cc1 (configuration not stated) was read as Sa growth 42C 104, HCMV UL50-53 inh -11 and Sa growth 42C second temp 91.
`COc1cccc(NC(=O)c2ccc(OC)c(OC)c2)c1` gave Sa growth 42C 96, GIV-Gai inh 103, HCMV UL50-53 inh -9 and Sa growth 42C second temp 89.

Of the compounds above, these contain a cyano group.
Screening N#Cc1c(N)cc(N)nc1SCc1ccc(Cl)c(Cl)c1 returned Sa growth 42C 70, HCMV UL50-53 inh -17 and Sa growth 42C second temp 62.
`CCOC(=O)C1=C(c2ccccc2)NC(SC)=C(C#N)C1c1cccnc1` (configuration not stated) gave GIV-Gai inh 99 and HCMV UL50-53 inh -7.

Carrying on.
For CCc1ccc(NC(=O)c2cc(=O)n3c(nc4ccccc43)s2)cc1 the results were Sa growth 42C 99, GIV-Gai inh 105, HCMV UL50-53 inh 7 and Sa growth 42C second temp 94.
Screening CN(Cc1cnn(-c2ccccc2)c1)C(=O)C1CCN(c2ccc(-c3cccs3)nn2)CC1 returned Sa growth 42C 101, GIV-Gai inh 100, HCMV UL50-53 inh 0 and Sa growth 42C second temp 96.
`Cc1ccc(CN2N=NC3C(=O)NC(=O)C32)cc1` (configuration not stated) gave Sa growth 42C 93, GIV-Gai inh 97, HCMV UL50-53 inh -37 and Sa growth 42C second temp 85.
`CCN=c1sc(C2=c3ccccc3=NC2=O)c(O)n1CC` gave Sa growth 42C 94, GIV-Gai inh 103, HCMV UL50-53 inh -20 and Sa growth 42C second temp 78.
`CCOC(=O)N1CCC(NC(=O)c2sc(-n3cccc3)nc2C)CC1` gave Sa growth 42C 129, GIV-Gai inh 108, HCMV UL50-53 inh 1 and Sa growth 42C second temp 98.
Cc1ccc(NC(=O)Cn2c(=O)oc3cc(S(=O)(=O)N4CCCC4)ccc32)c(C)c1 was read as Sa growth 42C 96, GIV-Gai inh 108, HCMV UL50-53 inh 4 and Sa growth 42C second temp 88.
`CCn1nccc1C1CCCN1C(=O)Nc1ccc(F)c(Cl)c1` (configuration not stated) gave GIV-Gai inh 102 and HCMV UL50-53 inh 11.
For CCC(=O)Nc1ccc2c(c1)C(=O)N(C)c1ccccc1O2 the results were GIV-Gai inh 100 and HCMV UL50-53 inh -12.
Screening CS(=O)(=O)c1cc2ccccc2oc1=O returned Sa growth 42C 90, GIV-Gai inh 96, HCMV UL50-53 inh -14 and Sa growth 42C second temp 81.
Screening COc1cccc(C(=O)Nc2cc(-c3cn4cccnc4n3)ccc2C)c1OC returned Sa growth 42C 75, GIV-Gai inh 96 and Sa growth 42C second temp 91.
For COc1ccc(/C=C2/CC(C(C)(C)C)C/C(=C\c3ccc(OC)cc3OC)C2=O)c(OC)c1 (configuration not stated) the results were Sa growth 42C 70, GIV-Gai inh 116 and Sa growth 42C second temp 87.
Screening CCCC(=O)Oc1ccc(N(C(=O)CCC)S(=O)(=O)c2ccccc2)cc1 returned Sa growth 42C 103, GIV-Gai inh 110 and Sa growth 42C second temp 104.
Screening CCn1c(O)c(/C=C/c2nc3ccccc3n2CC)sc1=S returned Sa growth 42C 110, GIV-Gai inh 215, HCMV UL50-53 inh -30 and Sa growth 42C second temp 95.
`O=C(c1ccc[nH]c1=S)n1ccnc1` gave Sa growth 42C 97, GIV-Gai inh 103 and Sa growth 42C second temp 71.
N#Cc1cn(C2CCCCC2)c(=O)[nH]c1=O was read as Sa growth 42C 105, GIV-Gai inh 104, HCMV UL50-53 inh 4 and Sa growth 42C second temp 93.
`COCCNC(=O)C1CCN(c2cc(C)nc3c(-c4ccc(OC)c(OC)c4)c(C)nn23)CC1` gave GIV-Gai inh 100 and HCMV UL50-53 inh -32.
`COCCCNC(=O)c1c(NC(=O)c2csnn2)sc2c1CCCC2` gave GIV-Gai inh 98 and HCMV UL50-53 inh -19.
Screening N#Cc1c(-c2ccccc2)nc2n(c1=O)CCS2 returned Sa growth 42C 95, GIV-Gai inh 104, HCMV UL50-53 inh -53 and Sa growth 42C second temp 83.
For CNC(=O)CSc1nncn1-c1ccccc1 the results were Sa growth 42C 90, HCMV UL50-53 inh -7 and Sa growth 42C second temp 98.
For N#Cc1cc(C(=O)c2cc(Br)ccc2O)cn(-c2ccccc2F)c1=O the results were Sa growth 42C 75, HCMV UL50-53 inh -45 and Sa growth 42C second temp 48.
For Nc1ccc(OCC(F)(F)F)nc1 the results were Sa growth 42C 89, GIV-Gai inh 102, HCMV UL50-53 inh -1 and Sa growth 42C second temp 68.
For CCOC(=O)c1c(F)c(F)c(S(C)(=O)=O)c(F)c1F the results were Sa growth 42C 98, GIV-Gai inh 100, HCMV UL50-53 inh -22 and Sa growth 42C second temp 82.
Screening CN(C)S(=O)(=O)c1ccc(N2CCCC2)c(C(=O)OCc2ncc(-c3ccccc3)o2)c1 returned Sa growth 42C 117, HCMV UL50-53 inh -20 and Sa growth 42C second temp 96.
